Source: PubChem (several laboratories)
ugtP null kill = kills S. aureus RN4220 lacking UgtP. AID 1259309. S. aureus RN4220 ugtP deletion, OD600 growth, 16 h; some inactives read as strong as hits. actives 0.54% (n = 330,000). growth inhibition, % (test concentration not listed);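 active = z-score under -3 and OD600 up to 0.15 on both plates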;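 also: plate controls were untreated wells for no effect and antibiotic for full effect; wells of about 80 µL received 100 nL stock; the first replicate is given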
BJeLR lethal = kills HRASV12-expressing BJeLR cells | BJeLR (HRASV12) viability, CellTiter-Glo ATP luminescence, 48 h; reference of the scale not given here | inhibition, % (no concentration beside the values) | actives 0.17% (n = 300,000) | AID 1554;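 active = replicate mean above 50%; inconclusive = above 50% but judged a plate artefact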;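 also: 50 nL library stock added to about 25 µL; numbers are from one replicate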
Autofluor counter = compound fluorescence in toxin protease inhibitor counterscreen; fluorescence intensity (no concentration beside the values); compound autofluorescence counterscreen, microsphere flow cytometry; hits give high values; actives 3.1% (n = 360,000);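 active = at least 3 SD above the mean of all compounds, about 16000 in these data; inconclusive = too few beads counted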;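 also: 100 nL of 1 mM stock went into each well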
Mtb hypoxia inh = Mtb hypoxia fluorescent reporter inhibition | M. tuberculosis hypoxia-regulated fluorescent reporter, fluorescence | fluorescence inhibition, % (test concentration not listed) | actives 0.1% (n = 300,000) | AID 1159583;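 active = 35 to 45% if threefold the growth effect, above 45% if 1.5-fold the growth effect; inactive = the rest, general growth blockers included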;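 also: wells of about 50 µL received 100 nL stock; 0% = vehicle wells and 100% = reference inhibitor wells; whole bacteria with a GFP reporter of the hypoxia response; strong numbers were not always called active; many hits fall short of the cut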
PrP 5UTR inh = suppresses PrP 5' UTR mRNA reporter expression; AID 488862; actives 0.35% (n = 340,000); cell-based PrP 5' UTR mRNA reporter, plate reader; inhibition, % (test concentration not listed);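 active = every replicate at 50% or more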;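 also: 0 = median of the neutral control wells; tested in H4 reporter cells; numbers are from one replicate; inactives centre near -14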
Sa RN4220 lethal = S. aureus RN4220 growth inhibition; OD600, 16 h; inhibition, % (concentration not given with the values); actives 0.33% (n = 330,000);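 active = z-score of -3 or lower and OD600 up to 0.18 on both plates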;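 also: plate controls were untreated cells for no effect and reference antibiotic for full effect; stock transfer was 100 nL into about 80 µL; one replicate is shown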
Mtb hypoxia inh growth = also measured in Mtb hypoxia inh; calls as there; growth inhibition, %; measured here: M. tuberculosis growth (absorbance);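 0% = vehicle and 100% = reference antibiotic; read after six days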
The depositor's hits bear a star; ? = inconclusive; · = no result given.

The opening 2 records, ahead of the listing:
SMILES | ugtP null kill | BJeLR lethal | Autofluor counter | Mtb hypoxia inh | Mtb hypoxia inh growth | PrP 5UTR inh | Sa RN4220 lethal
COc1ccccc1NC(=O)C1CC(O)CN1C(=O)Oc1ccccc1 (centres undefined) | -3 | -3 | 3880 | -5 | 10 | 5 | -3.1
COc1ccc(CC(=O)NN=C(C)CC(=O)N(C)c2ccccc2)cc1 | 0 | · | · | -1 | 9 | · | -0.2

The list itself, from the start:
SMILES | ugtP null kill | BJeLR lethal | Autofluor counter | Mtb hypoxia inh | Mtb hypoxia inh growth | PrP 5UTR inh | Sa RN4220 lethal
COc1ccccc1NC(=O)C1CC(O)CN1C(=O)Oc1ccccc1 (centres undefined) | -3 | -3 | 3880 | -5 | 10 | 5 | -3.1
COc1ccc(CC(=O)NN=C(C)CC(=O)N(C)c2ccccc2)cc1 | 0 | · | · | -1 | 9 | · | -0.2
Cc1ccc(C)c(-n2c(-c3ccc4c(c3)OCO4)n[nH]c2=S)c1 | 0 | 7 | 23573* | 5 | 12 | -18 | 5.1
CCC(c1nnnn1Cc1ccc2c(c1)OCO2)N1CCN(CC)CC1 (centres undefined) | 18 | -6 | 4810 | 4 | 3 | -21 | 5.4
CN(CC(=O)Nc1cccc2ccccc12)C(=O)c1ccc(NC(=O)CC#N)cc1 | 0 | · | 4280 | 3 | 1 | -13 | 4.1
CCCCN(CC)CCCNC(=O)c1ccc(CS(=O)(=O)c2c(Cl)cccc2Cl)o1 | 5 | -2 | 3839 | -8 | 7 | 2 | 1.0
COc1ccc(OC)c(NC(=O)NCCCCc2ccccc2)c1 | 12 | -1 | 4377 | 3 | -7 | 1 | -3.7
O=C(NC(=S)N1CCN(c2ccc(O)cc2)CC1)c1ccco1 | -1 | · | 3495 | 2 | 4 | -18 | 3.3
Cc1noc(C(=O)Nc2cccnc2Cl)c1Cl | 8 | 2 | 3558 | 3 | -3 | -15 | 2.3
COc1ccc(NC(=O)C2CC(=O)OC2c2ccccc2)cc1 (centres undefined) | 3 | 27 | 2428 | 1 | 2 | 5 | 5.1
O=C(COc1ccccc1Cl)NCc1ccco1 | 11 | · | 3405 | · | · | -26 | 3.8
Cc1cccc(C)c1NS(=O)(=O)c1ccc(-c2cnc(C3CC3)o2)cc1 | 10 | 60* | 5669 | 13 | 4 | 30 | 51
COc1ccccc1NC(=O)C(=O)NCCC1CCCCN1S(=O)(=O)c1ccc(F)cc1 (centres undefined) | 9 | -5 | ? | 3 | 6 | -25 | 9.9
COc1cccc(CNC(=O)CCS(=O)(=O)c2ccc3c(c2)CC(C)N3C(=O)C2CC2)c1 (centres undefined) | 3 | -3 | 5255 | -2 | 3 | -26 | 2.4
COc1ccc(C(=O)O)cc1S(=O)(=O)Nc1ccccc1Cc1ccccc1 | -1 | -15 | 6250 | -11 | -5 | -14 | -0.2
COC(=O)c1ccc(CS(=O)(=O)c2ccc(F)cc2)o1 | 2 | -5 | 4315 | -7 | -4 | -11 | 1.2
COc1ccccc1NC(=O)Cc1csc(NC(=O)c2ccccc2)n1 | 21 | 5 | 2761 | 3 | 16 | -21 | -2.2
O=C(Nc1ccccc1)OCCOc1ccc(Br)cc1 | 4 | 0 | 3195 | 2 | -1 | -5 | 1.9
COc1ccc(CC(=O)Nc2cccc(-c3ccc4nnc(C)n4n3)c2)cc1OC | 9 | 18 | 6042 | 8 | 8 | -19 | 7.5
CCOC(=O)c1cc(CC)sc1NC(=O)C1CC(=O)NN1Cc1ccccc1 (centres undefined) | -19 | 6 | 2989 | -1 | 0 | -14 | -2.5
CC(C)=CCCC(C)CN1CCC(N2CCC(C(=O)NC(C)C)CC2)CC1 (centres undefined) | 8 | 13 | 4574 | -4 | -6 | -10 | 3.5
N#Cc1c(C(F)(F)F)cc(-c2ccc(Cl)cc2)[nH]c1=O | 43 | 2 | 4160 | 0 | -4 | -3 | 53
CN1C(=O)C(=Cc2ccccc2OCCOc2ccc([N+](=O)[O-])cc2)C(=O)N(C)C1=O | -2 | 1 | 3448 | -7 | 3 | -24 | 18
CN1C(=O)NC(c2cccc([N+](=O)[O-])c2)C2=C1CC(C)(C)CC2=O (centres undefined) | 5 | -18 | 4159 | 0 | -2 | -16 | 2.7
O=C(CCCOc1ccc(Cl)cc1Cl)NCc1ccncc1 | 4 | 13 | 3415 | 3 | 14 | -23 | 0.3
CCOC(=O)c1cc(S(=O)(=O)NCCc2ccc(OC)c(OC)c2)cn1C | 1 | -4 | 5062 | 8 | 4 | -14 | 2.9
O=C1NC(c2ccco2)Nc2sc3c(c21)CCN(Cc1ccccc1)C3 (centres undefined) | -10 | · | 5542 | 3 | 12 | -46 | -9.3
Cc1c(Cl)cccc1NC(=O)CCN1CCN(C)CC1 | 1 | 0 | 3619 | -1 | 12 | -13 | 2.8
Clc1ccccc1C1SCC2Nc3ccccc3CN21 (centres undefined) | 21 | 2 | 2699 | 10 | 5 | -11 | -1.8
Cc1cccc(N(C(=O)Cn2nnc3ccccc32)C(C(=O)NCc2ccco2)c2ccncc2)c1C (centres undefined) | 0 | -7 | 5110 | · | · | -19 | 0.8
COCCCN(C(=S)NC(=O)c1ccc(C(C)(C)C)cc1)c1c(N)n(Cc2ccccc2)c(=O)[nH]c1=O | 0 | -9 | 1860 | 11 | 4 | -18 | -0.5
O=c1cc(CSc2nc(NCc3ccc(Cl)cc3)c3ccccc3n2)nc2ccc(Cl)cn12 | 12 | · | 4033 | 17 | 3 | -21 | 3.9
Cc1c(NC(=O)COC(=O)Cc2ccc(Cl)cc2)c(=O)n(-c2ccccc2)n1C | 9 | -19 | 3601 | · | · | -35 | -3.5
CC1CN=C(Nc2ccccc2)N1CCc1ccccc1 (centres undefined) | 1 | · | · | 0 | 3 | · | 2.6
CCc1cc(C(=O)O)c(NC(=O)C(c2ccccc2)c2ccccc2)s1 | -7 | -1 | 3345 | 5 | 4 | -23 | 5.6
O=C(O)CCC(=O)OC1CC2CCC1C2 (centres undefined) | 4 | -6 | 10830 | 18 | 13 | -30 | 3.9
Cc1ccc(NC(=O)c2ccccn2)cc1S(=O)(=O)N1CCOCC1 | -2 | 1 | 4270 | -4 | 3 | -15 | -0.5
Nc1ccc(Nc2ccncc2[N+](=O)[O-])cc1 | 14 | 3 | 6712 | 9 | 5 | -9 | 3.3
CCOC(=O)C1CCN(C(=O)C2CCN(C(=O)c3ccc([N+](=O)[O-])cc3)CC2)CC1 | 4 | 4 | 5837 | 7 | 6 | -20 | -0.2
COC(=O)Cc1c(O)ccn(CCc2ccc(OC)c(OC)c2)c1=O | · | 1 | 4732 | · | · | -10 | ·
COc1ccc(CC(CC(=O)O)C(=O)Nc2ccc(OC)cc2)cc1 (centres undefined) | -2 | 3 | 8335 | 11 | 11 | -8 | 1.3
CC1CCCCN1S(=O)(=O)c1ccc(C(=O)Nc2ccccc2-c2nc3ccccc3s2)cc1 (centres undefined) | 4 | 9 | 5529 | 0 | 3 | -17 | 3.5
Cc1noc(C)c1CSCC(=O)N1CCN(c2ccc([N+](=O)[O-])cc2)CC1 | -3 | 16 | 3244 | -1 | 8 | 1 | -7.6
CCOC(=O)c1c(C)[n+]([O-])c2ccc3c(non3O)c12 | 6 | 1 | 4423 | 5 | 2 | -12 | 9.5
CC(C)(C)OC(=O)C(C)(C)Sc1nnc(N)s1 | -6 | -7 | · | -9 | 15 | -7 | -0.6
CCc1ccc(NC(=O)CN2C(=O)CSC2=O)cc1 | 8 | 5 | 2826 | 10 | 13 | -15 | 2.1
CN(CC(=O)NCc1ccc(Cl)cc1)S(=O)(=O)c1cccc2cccnc12 | 4 | -13 | 4058 | · | · | -5 | 0.2
COCCCNC(=O)c1ccc2c(=O)n(Cc3ccc4c(c3)OCO4)c(=S)[nH]c2c1 | 10 | 8 | 5989 | 14 | 7 | -13 | -0.9
N#Cc1ccc(N2Cc3ccccc3/C2=N/C(=O)Nc2ccc(Cl)cc2)cc1 | · | -2 | 2422 | · | · | -11 | ·
COc1cc(/C=N/NC(=O)C2CC(=O)N(c3ccc(C)cc3)C2)cc(OC)c1OC (centres undefined) | · | -2 | 3769 | · | · | -10 | ·
COCCn1c(SCC(=O)NC2CCCCC2)nnc1-c1ccncc1 | 3 | 0 | 4604 | -4 | -3 | -3 | 3.7
Cn1c(CNc2cccc(Cl)c2)nnc1SCC(=O)OC1CCCCC1 | 1 | 5 | 8079 | 11 | 11 | -30 | 7.3
COc1ccc(NC(=O)c2cc3n(n2)C(C(F)(F)F)CC(c2ccc4c(c2)OCO4)N3)cc1OC (centres undefined) | -6 | · | 15027 | -2 | -2 | 9 | 16
Nc1nc(-c2ccc(F)cc2)cc(C(F)(F)F)n1 | 8 | 4 | 3394 | -64 | 1 | 0 | 8.1
CCC(=O)NC(=S)Nc1ccc(N2CCOCC2)cc1 | 10 | 2 | 3363 | 13 | 4 | -18 | 6.7
COc1ccccc1C#Cc1ccc2c(=O)c3ccccc3n(C)c2c1 | 22 | -10 | 4086 | 12 | 2 | -6 | 6.7
COc1ccc(CNC(=O)C2(C)Cc3ccccc3C(=O)O2)cc1 (centres undefined) | 3 | 1 | 2597 | 7 | -6 | -23 | 0.3
CCOC(=O)c1c(C)n(-c2ccccc2)c2ccc(OCCN(C)C)cc12 | 20 | 1 | 3771 | 14 | 14 | -2 | -1.9
c1ccc(CCN2CN=C(Nc3nc4ccccc4o3)NC2)cc1 | -9 | -10 | 9673 | 6 | 17 | -45 | 3.3
COc1ccc(CC(=O)Nc2ccncc2Cl)cc1 | 7 | 23 | 5511 | 2 | -9 | -14 | 1.3

(listing goes on)
SMILES | ugtP null kill | BJeLR lethal | Autofluor counter | Mtb hypoxia inh | Mtb hypoxia inh growth | PrP 5UTR inh | Sa RN4220 lethal
CCOc1ccc(NC(=O)c2ccc(NC(=O)c3ccc(CN4CCOCC4)cc3)cc2)cc1 | 2 | 18 | 3495 | -6 | -5 | -4 | 3.1
O=C(O)CCn1c(SCc2cccc3ccccc23)nc2ccccc21 | -6 | -1 | 8919 | 13 | 8 | -22 | 5.8
NS(=O)(=O)c1ccc(NC(=O)CSc2ccc3ccccc3n2)cc1 | 1 | 8 | 16858* | 9 | 9 | 0 | 4.1
CC(=O)c1cccc(NC(=O)/C(=C\c2ccco2)NC(=O)c2cccs2)c1 | 2 | 4 | 3320 | 4 | -1 | 0 | -1.0
Cc1ccc(CSc2ccc(S(=O)(=O)N3CCCCC3)cn2)cc1 | 9 | · | · | 12 | 4 | -23 | 3.7
CN(C(=O)CSc1nnc(-c2ccncc2)n1C)C1CCS(=O)(=O)C1 (centres undefined) | -8 | -7 | 2761 | · | · | -16 | -3.1
COc1ccc(N=C2SC(CC(=O)Nc3ccccc3)C(=O)N2Cc2ccccn2)cc1 (centres undefined) | 6 | 7 | 4229 | 5 | 17 | -14 | 1.1
CCOC(=O)c1ccc(NC(=O)N2CCN(C(=O)c3ccco3)CC2)cc1 | -3 | 0 | 2534 | -6 | -7 | -7 | 2.1
COc1ccc(/C=N/NC(=O)c2cnccn2)cc1O | · | -6 | 2200 | · | · | -42 | ·
CCCC(=NNC(=O)CNC(=O)/C=C/c1ccco1)c1ccccc1 | 1 | · | · | -3 | 7 | · | 6.2
Cc1ccc(N2C(=O)N3[C@H]4c5ccccc5OC[C@@H]4[C@@H](c4ccccc4)[C@@]3(C)C2=O)cc1 | · | -3 | 4173 | · | · | -11 | ·
Brc1ccc(C=NNc2nncc(-c3ccccc3)n2)o1 | -6 | · | · | 3 | 7 | · | 0.6

Entries of single compounds, quoted from the list. Values in the order: ugtP null kill | BJeLR lethal | Autofluor counter | Mtb hypoxia inh | Mtb hypoxia inh growth | PrP 5UTR inh | Sa RN4220 lethal
Brc1ccc(C=NNc2nncc(-c3ccccc3)n2)o1 is entered as -6 | · | · | 3 | 7 | · | 0.6
Cc1ccc(CSc2ccc(S(=O)(=O)N3CCCCC3)cn2)cc1 is entered as 9 | · | · | 12 | 4 | -23 | 3.7

Going on with the list:
SMILES | ugtP null kill | BJeLR lethal | Autofluor counter | Mtb hypoxia inh | Mtb hypoxia inh growth | PrP 5UTR inh | Sa RN4220 lethal
COc1cccc(/C=C(/C(=O)OCC(=O)NC2CCCC(C)C2C)c2ccccc2)c1 (centres undefined) | -17 | -16 | 1997 | 15 | 6 | -17 | -4.8
C=CCSc1nnc2c(n1)OC=Nc1ccccc1-2 | -1 | -4 | 2479 | 9 | 5 | -10 | 6.1
Cc1ccc2nc(NN=Cc3ccco3)cc(C)c2c1 | -1 | · | · | -17 | -5 | · | -0.1
OCCN(Cc1nc(-c2ccc3c(c2)OCO3)no1)Cc1cccs1 | -3 | 10 | 3637 | 15 | 11 | -7 | 2.0
Fc1ccccc1-c1cc2cc3c(cc2cn1)OCO3 | 25 | · | 4330 | 10 | 9 | -46 | 3.9
